Screening results deposited in PubChem by National Center for Advancing Translational Sciences (NCATS).
Cruzain noTriton – qHTS Assay for Promiscuous and Specific Inhibitors of Cruzain (without detergent); Cruzipain (Trypanosoma cruzi), P25779; purified cruzain, Z-FR-AMC fluorescence, no detergent; Potency, µM, without a hit: max response, negative = inhibition, actives largely listed as inhibitors; 200,000 compounds, 2.3% hits; AID 1476, 2009; active means well fitted curve in the direction sought with a large enough effect; inconclusive means small, poorly fitted or top-dose-only effect, or another doubt; inactive means no such curve, though single readings can be large; an effect the other way counts as inactive or inconclusive;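 further: plate controls were enzyme without inhibitor for no effect and buffer without enzyme for full effect; nearly all actives have a fitted effect of over 40% in size; top concentration of the series not given in the record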
Target sequence (P25779 123-467 limits assumed): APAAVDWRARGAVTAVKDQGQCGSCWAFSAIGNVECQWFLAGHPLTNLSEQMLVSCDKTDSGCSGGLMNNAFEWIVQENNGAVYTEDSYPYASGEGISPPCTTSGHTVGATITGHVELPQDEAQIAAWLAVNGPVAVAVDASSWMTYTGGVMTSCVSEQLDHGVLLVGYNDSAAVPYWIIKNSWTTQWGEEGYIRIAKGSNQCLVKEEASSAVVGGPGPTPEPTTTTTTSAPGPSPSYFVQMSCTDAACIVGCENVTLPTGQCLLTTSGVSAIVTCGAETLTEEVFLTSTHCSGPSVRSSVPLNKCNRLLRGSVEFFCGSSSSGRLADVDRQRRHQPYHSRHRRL
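Purified cruzain at 1.5 nM, pre-incubated 15 min with compound at room temperature in 100 mM sodium acetate pH 5.5, 5 mM DTT, 0.00005% Triton X-100. Reaction started with 2 uM Z-FR-AMC; AMC fluorescence increase over 60 s gives rate.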
Lassa entry inh – qHTS for Inhibitors of binding or entry into cells for Lassa Virus; 300,000 compounds, 1.2% hits; AID 540256, 2011; Potency, µM (series often up to 37.9 µM), without a hit: at the top dose activity change, negative = inhibition, actives largely listed as inhibitors; Lassa virus pseudotype entry inhibition, cell reporter; control for the full effect not named in the record; active means well fitted inhibition curve with a large enough effect; inconclusive means small, poorly fitted or top-dose-only effect, or effect the other way; inactive means flat fitted curve, though single readings scatter; tested in HEK293 cells; further: on the % scale 0 is the no-effect control and ±100 the full control effect; nearly all actives have a fitted effect of over 50% in size; luciferase read-out
StopGo reporter – High Throughput Screening for Foot and Mouth Disease Virus Antivirals. human cells with a luciferase reporter of 2A StopGo recoding; control for the full effect not named in the record. Potency, µM (highest dose often 57.9 µM), inactives show at the highest dose signal change, negative = less light. 410,000 compounds, 1.2% hits; active = well fitted falling curve with a large enough effect; inconclusive = small, poorly fitted or top-dose-only effect; inactive = no such curve, though single readings can be large or run the other way; tested in HEK293T cells; further: on the % scale 0 is the no-effect control and ±100 the full control effect; nearly all actives have a fitted effect of over 45% in size; luciferase light after 4 h
Cruzain Triton – qHTS Assay for Promiscuous and Specific Inhibitors of Cruzain (with detergent). Cruzipain (Trypanosoma cruzi), P25779. purified cruzain, Z-FR-AMC fluorescence, 0.01% Triton. Potency, µM, inactives show max response, negative = inhibition, usual class: inhibitors. 200,000 compounds, 0.43% hits; active means well fitted curve in the direction sought with a large enough effect; inconclusive means small, poorly fitted or top-dose-only effect, or another doubt; inactive means no such curve, though single readings can be large; an effect the other way counts as inactive or inconclusive;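 further: plate controls were neutral wells for no effect and buffer without enzyme for full effect; nearly all actives have a fitted effect of over 40% in size; top concentration of the series not given in the record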
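In this qHTS format, compounds are incubated with 1.5 nM cruzain for 15 min at room temperature before 2 uM Z-FR-AMC is added. Release of AMC is followed at 360/450 nm, and progress is taken as the 60 s fluorescence difference.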
NS1 inh – qHTS Assay for Inhibitors of Influenza NS1 Protein Function; S. cerevisiae slowed by influenza A NS1, growth recovery by OD600; Potency, µM (series often up to 46.1 µM), without a hit: top-dose activity, positive = more growth; 270,000 compounds, 0.4% hits; AID 2326, 2010; further: actives are rising curves; nearly all actives have a fitted effect of over 50% in size
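OD600 was taken as the measure of yeast growth restored by compound in an NS1-expressing S. cerevisiae strain. Cells had been washed out of glucose medium and diluted 1:100 into galactose -URA medium, pH 6.0.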
MARV entry inh – qHTS for inhibitors of binding or entry into cells for Marburg Virus; Marburg virus pseudotyped entry inhibition, cell reporter; control for the full effect not named in the record; about a third of the inactives were read at about 46 µM; Potency, µM (doses to about 37.8 µM), for inactives: at the highest dose activity change, negative = inhibition, hits mostly inhibitors; 300,000 compounds, 1.8% hits; AID 540276, 2011; active = well fitted inhibition curve with a large enough effect; inconclusive = small, poorly fitted or top-dose-only effect, or effect the other way; inactive = flat fitted curve, though single readings scatter; tested in HEK293 cells; about a fifth of its hits are not listed in these tables; further: on the % scale 0 is the no-effect control and ±100 the full control effect; luciferase read-out
SARS PLP yeast – qHTS of Yeast-based Assay for SARS-CoV PLP; S. cerevisiae expressing SARS-CoV PLpro, growth rescue; control for the full effect not named in the record; Potency, µM (titrated, usually from 32.9 µM), without a hit: at the highest dose activity, positive = growth rescue; 330,000 compounds, 0.19% hits; AID 485353, 2010; further: 0% is about no effect; nearly all actives have a fitted effect of over 55% in size; growth read by luminescence after 48 h
RE007 growth inh – qHTS Assay for Inhibitors of the HIV-1 protein Vpr; S. pombe RE007 Vpr strain, BacTiter-Glo ATP luminescence, 24 h; control for the full effect not named in the record; Potency, µM (titrated, usually from 92.2 µM), without a hit: top-dose activity change, negative = less growth; 360,000 compounds, 0.21% hits; AID 651644, 2012; active = well fitted falling curve with a large enough effect; inconclusive = small, poorly fitted or top-dose-only effect; inactive = no such curve, though single readings can be large or run the other way;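 further: on the % scale 0 is the no-effect control and ±100 the full control effect; nearly all actives have a fitted effect of over 50% in size; the assay follows cell death caused by Vpr and the record does not say whether a fall means rescue or toxicity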
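Fission yeast RE007 carrying one integrated HIV-1 vpr copy, seeded at OD 0.01 in PMG+AL medium with 23 nL pinned compound. Grown 24 h at 30 degrees; viability read by BacTiter-Glo luminescence after 5 min.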
Active calls of the source: *; ? = inconclusive; . = not tested or not shown; & = joins results of further samples; [ ] = another dose, or the depositor's remark. Unless noted, the call rests on the fitted dose curve; in most records, active means well fitted rising curve with a large enough effect; inconclusive means small, poorly fitted or top-dose-only effect; inactive means no such curve, though single readings can be large or run the other way. Potency means the concentration at half of the fitted maximal effect.

SMILES	Cruzain noTriton	Lassa entry inh	StopGo reporter	Cruzain Triton	NS1 inh	MARV entry inh	SARS PLP yeast	RE007 growth inh
CCCCOc1ccc(N(CC(=O)NCC2CCCO2)C(=O)CCC(=O)Nc2nccs2)cc1 (stereo not given)	.	-18%[46.1 µM]	-4%	.	-2%	2%[46.1 µM]	16%	3%
Cc1ccc(-c2ccccc2[C@@H]2C[C@H]3CN(C)C(=O)[C@]34CCCN24)o1	.	-14%	-11%	.	2%	8%[46.1 µM]	-2%	-11%
COc1cccc(C(=O)NCC(=O)OCc2cc(=O)n3nc(C)sc3n2)c1	14%	?	-1%	-0.9%	.	.	.	.
COc1ccc(OC)c(S(=O)(=O)N(C)CC(=O)Nc2ccccc2OC)c1	-1%	9%	-14%	-0.3%	-4%	10%	.	-14%
C/C(=N/OCO/N=C(\C)c1ccc(F)cc1F)c1ccc(F)cc1F	4%	22%	-18%	-0.7%	1%	10%	10%	-18%
CC(C)(C)C(=O)NCCCNc1ccc([N+](=O)[O-])cc1	.	5%	0%	.	2%	0%[46.1 µM]	5%	-22%
FC(F)(F)c1nc(N2CCCC2)ncc1-c1nnnn1-c1ccccc1	-2%	-1%	18µM*	-0.6%	-44%	-16%	-6%	8%
COc1ccc(CN(CC(=O)NCCC(C)C)C(=O)CCC(=O)Nc2nccs2)cc1	.	-6%[46.1 µM]	22%	.	27%	-12%[46.1 µM]	6%	6%
CC1=CC(C)(C)NC(=S)N1c1ccccc1	7%	5%	.	-1.4%	-2%	0%	?	12%
Fc1cccc(NC(=S)N2CCn3cccc3C2c2cccnc2)c1 (stereo not given)	.	?	14%	.	.	3%[46.1 µM]	-5%	-2%
Brc1ccc(-n2nc(-c3ccccc3)c3cnc4cc5c(cc4c32)OCO5)cc1	-9%	1%[46.1 µM]	-12%	-1.8%	.	-2%[46.1 µM]	.	.
Cc1ccc(C)c(N2CCN(S(=O)(=O)c3ccc4[nH]c5c(c4c3)CCCCC5)CC2)c1	7.9µM*	-15%[46.1 µM]	-18%	-0.2%	.	.	.	.
CN1N=C2c3ccccc3CCC2C1c1ccc(F)cc1 (stereo not given)	.	?	37%[activator]	.	-5%	?	-2%	0%
COc1ccc(OC)c(NC(=O)c2ccc3c(c2)C(=O)N(CC2CCCO2)C3=O)c1 (stereo not given)	.	-27%[46.1 µM]	-9%	.	0%	2%[46.1 µM]	0%	-11%
CCOc1ncccc1C(=O)N1CCCSC1=Nc1ccc(C(C)=O)cc1	.	.	-22%	.	21%	.	1%	3%
CCOC(=O)Cn1c(=O)oc2cc(S(=O)(=O)N3CCN(c4ccc(F)cc4)CC3)ccc21	-1%	0%[46.1 µM]	-24%	0.8%	.	8%[46.1 µM]	.	.
O=C(Nc1ccccn1)NC1CCS(=O)(=O)C1 (stereo not given)	-5%	?	-19%	1.7%	3%	-16%	-3%	-6%
N#Cc1ccc(Cl)cc1NC(=O)COC(=O)c1ccc(S(=O)(=O)N2CCCC2)cc1	-6%	-6%	-7%	3.0%	16%	9%[46.1 µM]	-9%	19%
O=C(Nc1c2c(nn1-c1ccc(Cl)cc1)CS(=O)(=O)C2)c1ccc2c(c1)OCO2	-4%	4%	-3%	0.2%	-104%	-8%	-1%	-10%
CC(=O)NCCC(=O)Nc1ccc(F)cc1C	1%	15%	-15%	7.4%	2%	7%	3%	-5%
CN(c1ccccc1C(=O)Nc1ccc2c(c1)n(C)c(=O)n2C)S(C)(=O)=O	.	.	6%	.	13%	.	0%	3%
CCc1ccccc1NC(=O)Cc1cn(C)c2ccccc12	-13%	-8%[46.1 µM]	-19%&10%	-2.3%	.	0%&0%[46.1 µM]	-1%	-7%
Cc1csc(SCC(=O)NCCc2ccc(Cl)cc2Cl)n1	-7%	1%	-26%	-3.1%	?	18%	-40%	11%
COc1ccc(-n2c(C)c(C(C)=O)c3cc(OC(=O)c4ccc(C)cc4)ccc32)cc1	-10%	-24%[46.1 µM]	-18%	-0.7%	.	.	.	.
COc1ccc(CNC(=O)C2CCN(S(C)(=O)=O)CC2)cc1	.	-29%	0%	.	.	0%[46.1 µM]	2%	10%
CCOC(=O)c1c(C)n(-c2ccccc2)c2ccc(OC(=O)c3cccc(C)c3)cc12	2%	12%[46.1 µM]	9%	-2.3%	.	.	.	.
CCc1c(O)nc(SCC(=O)Nc2ccc(Br)cc2)n(-c2ccc(C)cc2)c1=O	.	0%[46.1 µM]	-12%	.	13%	0%[46.1 µM]	3%	-2%
Cc1ccc(Cc2nc3ccccc3nc2SCC(=O)N2CCCCC2C)cc1 (stereo not given)	-1%	?	?	-6.0%	.	.	.	.
CN(C)S(=O)(=O)c1ccc(C(=O)OCC(=O)NC(=O)NCc2ccccc2)cc1	?	-8%	-10%	3.3%	-5%	5%	11%	11%
O=C(CSc1c(Cl)cccc1Cl)N1CCC(c2nc3ccccc3s2)CC1	17%	-17%	?	-3.7%	-45%	.	-14%	-2%
O=[N+]([O-])c1ccc(S(=O)(=O)NCC2COc3ccccc3O2)cc1 (stereo not given)	.	20%[46.1 µM]	5%	.	-7%	17%[46.1 µM]	-2%	-9%
O=C(Nc1cccc(OC(=O)N2CCOCC2)c1)N1CCOCC1	-8%	6%	9%	2.7%	0%	-5%[46.1 µM]	1%	27%
CN(C(=O)c1cc2c(=O)n3ccccc3nc2n1C)C1CCCCC1	.	?	9%	.	1%	?	3%	3%
COC(=O)NNC(=O)COc1ccc(Br)c(C)c1	4%	1%	16%	-5.5%	8%	8%	0%	-10%
Cc1ccc(CNC(=O)c2nnn(-c3cccc(C)c3)c2N)cc1	-2%	2%	-22%	-1.6%	-42%	?	-4%	18%
Cn1ccnc1Sc1ccc(C=O)cc1[N+](=O)[O-]	.	14%	-5%	.	.	17%[46.1 µM]	-3%	19%
COc1ccccc1C(=O)c1cn(CC(=O)Nc2ccccc2F)c2nc(C)ccc2c1=O	-14%	2%[46.1 µM]	-5%	-5.3%	.	.	.	.
O=C(CCNC(=O)c1ccc([N+](=O)[O-])cc1)Nc1ccc(N2CCOCC2)cc1N1CCOCC1	.	-5%	-2%	.	.	15%	3%	0%
CCOc1ccccc1OCC(=O)Nc1cc(S(=O)(=O)N2CCCCC2)ccc1OC	.	-14%	-29%	.	.	-14%	1%	-1%
COc1ccccc1CC(=O)N1CCN(c2ccc(F)cc2)CC1	.	-7%	?	.	.	?	.	3%
COc1ccc(C(CCNC(C)c2ccccc2)C(C)C)cc1 (stereo not given)	.	?	28%	.	-2%	?	1%	-6%
O=C(Nc1nnc(SCc2ccccc2Cl)s1)c1cccc([N+](=O)[O-])c1	?	8%	-26%	-5.0%	5%	9%	-4%	8%
CCOc1ccc(CNC(=O)c2ccc3c(c2)N(Cc2ccccc2)CCS3)cc1	-21%	.	13%	-4.9%	.	?	.	.
CCc1ccc(-c2cc(C)no2)cc1S(=O)(=O)Nc1cc(OC)c(OC)c(OC)c1	?	.	40%[activator]	-5.7%	.	.	.	.
COc1ccc([N+](=O)[O-])cc1NS(=O)(=O)c1ccc(C)cc1	.	.	19%	.	-7%	.	0%	1%
Fc1ccc(-c2n[nH]c(=S)n2/N=C/c2c[nH]c3ccccc23)cc1	?	?	-14%	-3.0%	-5%	-10%	11%	20%
CCOc1ccc(C(NC(=O)c2cc(OC)c(OC)c(OC)c2)c2cc(Cl)c3cccnc3c2O)cc1 (stereo not given)	?	?	-16%	1.9%	.	.	.	.
COc1ccc(/C=N/Nc2cc(C)nc(-n3nc(C)cc3C)n2)c(OC)c1	?	21µM*	28µM*	-7.1%	-3%	?	-13%	?
COc1ccc2c(=O)c(-c3ccc(OC)c(OC)c3)coc2c1	.	.	51%[activator]	.	-9%	.	-1%	14%
Cc1c(C(=O)N/N=C/c2ccc(O)cc2)sc(=S)n1C	?	-9%	2%	-4.0%	?	-1%	-11%	-11%
COc1ccc(OC)c(NC(=O)CN2C(=O)c3ccccc3Sc3ccc(C(=O)N4CCCC4)cc32)c1	14%	?	-5%	1.5%	.	.	.	.
CC(C)c1ccc(NC(=O)C2CC(=O)Nc3nc4ccccc4n32)cc1 (stereo not given)	.	.	-16%	.	5%	.	1%	-7%
CCOC(=O)c1c(N)nn(C(=O)C(C)(C)C)c1-c1ccccc1	3%	0%	-18%	-13%	1%	1%	5%	25%
CCOc1ccc(NC(=O)CSc2nnc(-c3ccoc3C)n2CC2CCCO2)cc1 (stereo not given)	9%	-6%	-2%	0.1%	-7%	-7%	21%	23%
O=C(CSCc1ccccc1Cl)NN1C(=O)c2ccccc2C1=O	-4%	15%	5%	-2.6%	-25%	-7%	-9%	4%
Brc1ccc(Nc2ncnc3[nH]ncc23)cc1	.	.	10%	.	0%	.	-1%	4%
CC1CCCC(C)N1/N=C/c1ccc(Cl)cc1 (stereo not given)	-6%	10%	12%	1.4%	10%	-1%	10%	1%
O=C(O)CCc1n[nH]c(=S)[nH]c1=O	-1%	3%	-8%	-1.0%	-8%	-8%	16%	0%
O=S(=O)(NC1CCCC1)c1ccc(-n2cnnn2)cc1	.	.	19%	.	-1%	-5%[46.1 µM]	1%	0%
O=C(O)c1cccc2c1C(=O)c1ccccc1C2=O	.	-1%[46.1 µM]	-14%	.	.	15%[46.1 µM]	1%	-3%

Next part:
SMILES	Cruzain noTriton	Lassa entry inh	StopGo reporter	Cruzain Triton	NS1 inh	MARV entry inh	SARS PLP yeast	RE007 growth inh
O=C(CSc1nnnn1-c1ccc(F)cc1)NNC(=O)c1ccco1	.	.	-3%	.	6%	.	0%	-11%
S=c1[nH]nc(-c2ccc(Br)cc2)n1Cc1ccco1	-7%	2%	0%	-7.3%	-31%	6%[46.1 µM]	4%	14%
CCN(c1ccc(NS(=O)(=O)c2cc(Cl)ccc2Cl)cc1)C(C)C	-13%	?	0%	-7.0%	-2%	?	-10%	-2%
COc1ccc(CNC(=O)c2cc(=O)c3ccc(C)c(C)c3o2)cc1	.	?	10%	.	7%	?	3%	14%
